# HCMV UL50-53 inh: cytomegalovirus nuclear egress complex inhibition; inhibition, % (no concentration beside the values); HTRF UL50-UL53 interaction, normalized percent inhibition; actives 0.15% (n = 190,000); AID 1918969;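 active means both replicates at 50% or more, plus weaker picks with an unusually low signal ratio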;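 further: stock transfer was 100 nL into about 20 µL; 0% = negative control wells and 100% = wells with untagged competitor protein; inactives centre near -12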
# Sa growth 42C: S. aureus growth inhibition; S. aureus RN4220 growth, OD600, 20 h, 42 °C; hits give low values; relative growth, % (test concentration not listed); actives 0.53% (n = 170,000);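 active means growth at 42 °C up to 50% and 20 or more points under that at 30 °C, or under 10% at both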;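 further: 300 nL library stock went into each well; scaled to the means of positive and negative controls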
# GIV-Gai inh: blocks GIV peptide binding to rat Galpha-i3; Galpha-i3/FITC-GIV peptide fluorescence polarization, 90 min; hits give low values; scaled: aluminum fluoride 0%, vehicle 100%; P08753; actives 0.42% (n = 210,000); percent of control (FP), % (no concentration beside the values);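 active means replicate mean at 85% of control or lower, very high polarization wells dropped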;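 further: wells of about 15 µL received 100 nL stock; the first replicate is given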
# Target sequence (P08753 whole entry, looked up): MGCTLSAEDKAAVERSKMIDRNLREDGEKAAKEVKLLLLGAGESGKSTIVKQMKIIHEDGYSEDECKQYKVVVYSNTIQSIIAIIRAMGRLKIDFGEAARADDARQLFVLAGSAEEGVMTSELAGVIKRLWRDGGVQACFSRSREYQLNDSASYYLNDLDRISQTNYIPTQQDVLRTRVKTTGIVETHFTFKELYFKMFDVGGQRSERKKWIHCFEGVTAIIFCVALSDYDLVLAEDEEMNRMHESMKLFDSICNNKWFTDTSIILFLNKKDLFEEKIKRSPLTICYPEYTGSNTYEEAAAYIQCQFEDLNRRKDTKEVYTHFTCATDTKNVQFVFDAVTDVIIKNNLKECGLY
# Sa growth 42C second temp: further read-out of Sa growth 42C, marked with its call; relative growth, %; measured here: growth at 30 °C;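 optical density after 20 h as mean of two plates; 100% = untreated growth and lower means inhibition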
# An asterisk follows results filed as active; . = not tested or not shown; & = joins results of further samples.
SMILES,HCMV UL50-53 inh,Sa growth 42C,Sa growth 42C second temp,GIV-Gai inh
COc1ccc(Cn2cc(C(=O)c3ccc(Cl)cc3)c(=O)c3cc4c(cc32)OCO4)cc1,-23,84,80,98
CN1CCc2nc3ccccc3c(C(=O)OCC(=O)Nc3ccccc3C#N)c2C1,-10,99,93,.
CCC(C)(C)NC(=O)CN1C(=O)C(C)(C)c2ccccc21,-17,.,.,100
COc1ccccc1CNC(=O)Cc1c(C)c2cc3c(C)coc3c(C)c2oc1=O,-31,108,90,102
C=C1SC(Nc2c(CC)cccc2CC)=NC1(C)C,-7,94,85,106
Cc1cc(N2CCOCC2)nc2ccc(NC(=S)NC3CC3)cc12,-18,96,76,97
O=C(Nc1ccccc1)n1nnc(C2CN(Cc3ccccc3)CN(Cc3ccccc3)C2)n1,-42,112,90,107
COCCNC(=O)CN1C(=O)COc2ccc(S(=O)(=O)N3CCCCCC3)cc21,-26,103,91,104
CC(=O)Nc1ccc2nc(C)sc2c1,-109,122,84,.
Cc1ccc2c(c1)n(Cc1cccc(F)c1)c(=O)c1nc(C(=O)Nc3ccc(Oc4ccccc4)cc3)nn12,-5,.,.,102
O=C(NCc1n[nH]c(=S)n1-c1ccccc1)c1ccccc1,.,74,88,98
Cc1cccc(OCC(=O)N(Cc2sccc2C)C2CCS(=O)(=O)C2)c1 (stereo not drawn),-13,120,86,102
C=CCc1ccc(O)c(-c2ccc(O)c(CC=C)c2)c1,-2&-64,87,68,.
CCOC(=O)c1sc2nc(CC(=O)OC)nc(N3CCN(c4ccc(F)cc4)CC3)c2c1C,-23,.,.,106
Cc1ccnc(N(C(=O)Nc2ccc(Cl)cc2)C2=NCC(C)S2)c1 (stereo not drawn),-19,96,82,110
CCOC(=O)c1sc(-c2ccc(C)cc2)cc1N,-11,89,98,.
COc1cccc(CNCCSc2nnnn2C)c1OCc1ccccc1,8,108,87,104
CCCNC(=O)c1ccc(CN2CCCn3nc(C)cc32)cc1,-18,96,91,106
NS(=O)(=O)c1ccc(NNC(=O)CC2(CC(=O)O)CCCC2)cc1,-15,95,88,103
CCOC(=O)C1CCN(c2c(C(=O)c3ccccc3)cnc3ccc(CC)cc23)CC1,-6,72,69,99&95

# Complete entries, looked up by structure.
# O=C(Nc1ccccc1)n1nnc(C2CN(Cc3ccccc3)CN(Cc3ccccc3)C2)n1 in the list: HCMV UL50-53 inh = -42; Sa growth 42C = 112; Sa growth 42C second temp = 90; GIV-Gai inh = 107
# Cc1ccc2c(c1)n(Cc1cccc(F)c1)c(=O)c1nc(C(=O)Nc3ccc(Oc4ccccc4)cc3)nn12 in the list: HCMV UL50-53 inh = -5; Sa growth 42C = .; Sa growth 42C second temp = .; GIV-Gai inh = 102

# (next part)
SMILES,HCMV UL50-53 inh,Sa growth 42C,Sa growth 42C second temp,GIV-Gai inh
CCOC(=O)c1c(N)n(-c2ccccc2)c2nc3ccccc3nc12,-17,100,92,106
COc1cccc(C(=O)N2CCC(c3nc4ccccc4s3)CC2)c1,-20&-10,110,89,97&106
CN1CCN(C(=O)c2cc(C(C)(C)C)cc(C(C)(C)C)c2)CC1,-7,99,85,.
CCSc1ncc(Cl)c(C(=O)N(Cc2ccc(C(C)(C)C)cc2)C2CCS(=O)(=O)C2)n1 (stereo not drawn),-1,94,88,101
CCOc1ccccc1C(=O)Nc1nncs1,-2,103,78,104
CCc1ccc(CSc2nc(-c3ccccc3F)nc3c2Cc2c(CO)cnc(C)c2O3)cc1,.,100,108,105
O=c1c2c3c(sc2nc2n1CCCC2)CCCC3,-31,.,.,110&104
Cc1ccc(-c2nccc(N3CCCC(C(=O)NC4CCCCC4)C3)n2)cc1 (stereo not drawn),-10,.,.,103
Clc1cccc(C2C=C(c3cccnc3)Nc3nc4ccccc4n32)c1 (stereo not drawn),-10,104,84,99
COc1ccc2c(c1)CN(c1ccc(C)cc1C)CO2,-21,105,80,111
Cc1ccc(Nc2cc(C(C)C)nc3nc(-c4cccnc4)nn23)cc1C,-12,.,.,108
CC(=O)Nc1cccc(OCC(=O)N(C)c2ccccc2)c1,0,93,99,106
CCCCN(CC)CCNC(=O)CN1C(=O)COc2ccc(S(=O)(=O)N3CCOCC3)cc21,-22,99,93,107
COc1cccc(NC(=O)CN2CCCN(S(=O)(=O)c3ccc(Br)cc3)CC2)c1,-4,92,85,99
CS(=O)(=O)Nc1cccc(C(=O)NCc2ccccc2)c1,0,100,104,103
CCOC(=O)c1cc(-c2ccccc2)n(CCC(=O)NCc2cccs2)c1C,-16,134,104,104
Oc1ccc(Br)cc1CNc1ccc(F)cc1,-22,46,42,99
N#Cc1c(C(F)(F)F)cc(-c2cccs2)nc1SCC(=O)Nc1ccc(F)cc1,-44,98,80,108
Cc1cccc(-c2ocnc2C(=O)Nc2ccc(N3CCN(S(C)(=O)=O)CC3)cc2)c1,0,95,85,96
CCCCCC(=O)NC1CCN(C)CC1,5,98,99,105
O=C(c1ccccc1)C1CCN(C(=O)c2cccc(C(F)(F)F)c2)CC1,2,101,99,103
Cc1cc(NCC(C)C)n2nc(C(F)(F)F)c(-c3ccc(Cl)cc3)c2n1,-3,.,.,104
CCNC(=S)N1CCc2cc(OC)c(OC)cc2C1COc1ccc2c(C)cc(=O)oc2c1 (stereo not drawn),.,89,99,116
Cc1cc(C2N=C(N)Nc3nc4ccccc4n32)c(C)n1C1CC1 (stereo not drawn),-10,99,91,.
CN(Cc1ccccc1)C(=O)Cn1cnc(S(=O)(=O)N2CCCC2)c1,-6,105,91,96
Cc1ccc(CNCc2ccc(Br)cc2)cc1,-25,106,77,.
CC1=C(C(=O)Nc2ccccc2)C(c2ccccc2)n2ncnc2N1 (stereo not drawn),-23,.,.,102
CN1/C(=C\C(=O)COC(=O)C2=NNC(=O)CC2)C(C)(C)c2ccccc21,-30,95,92,.
CCSc1nc(NC(C)=O)nn1C(C)=O,-2,94,94,105
O=C(NCCc1c[nH]c2ccccc12)c1cccc(S(=O)(=O)N2CCCC2)c1,-35,100,95,.
CCOc1ccc(C2C(C(=O)Nc3ccc(OC)cc3)=C(C)Nc3nc(SCc4ccc(Cl)cc4)nn32)cc1 (stereo not drawn),.,114,99,108
CC(C)N(Cc1nc(-c2ccc(Cl)cc2)no1)C(=O)c1ccc(C(C)(C)C)cc1,-35,103,82,96
O=C(O)c1cccc(NC(=O)C2CCCO2)c1 (stereo not drawn),-13,103,99,105
O=C(CCCc1nc2cccnc2n1C1CCCCC1)Nc1ccc(F)cc1,-5,.,.,104
Cc1cc(C)c(C#N)c(SCC(O)CS(=O)c2ccc(C(C)(C)C)cc2)n1 (stereo not drawn),-15,111,92,105
O=C(CSc1nc2c(c(=O)[nH]1)CN(Cc1ccc(F)cc1)CC2)Nc1ccccc1Cl,-26,116,94,103
CCc1cccc(C)c1N(C(=O)Cn1c(CN2CCOCC2)nc2ccccc21)C(C)COC (stereo not drawn),-13,82,77,99
Cc1sc2ncn(CC(=O)N3c4ccccc4CC3C)c(=O)c2c1C (stereo not drawn),-32,93,89,.
O=c1c2c(n3nnnc3n1-c1ccccc1)-c1ccccc1CC21CCCC1,12,128,99,98
N#C/C(=C\Nc1ccc(Cl)cc1)c1ccc(Cl)cc1,-2,.,.,104
Cc1nc2nc(NC(=O)C(C)Oc3ccccc3)nn2c(C)c1Cl (stereo not drawn),-9,87,81,100
COC(=O)c1cccc(CN2C(=O)SC(Nc3ccc(C)cc3)C2=O)c1 (stereo not drawn),8,103,88,104
CC1CCCCC1NC(=O)c1ccc(CSc2nc3ccncc3[nH]2)cc1 (stereo not drawn),5,84,78,106
CCOC(=O)c1ccc(CNC(=O)c2ccc(S(=O)(=O)c3ccccc3)cc2)o1,-4,103,93,.
COC(=O)c1cccc(NC(=O)Nc2c(C)n(C)n(-c3ccccc3)c2=O)c1,0,.,.,102
Cc1cc(N(C)C)n2nc(-c3ccccc3)c(C)c2n1,-27,.,.,105
O=c1c(=O)n(Cc2ccc(Cl)cc2)ccn1Cc1ccc(F)cc1,4,66,89,96
CCc1ccccc1NC(=O)Nc1c[nH]c(=O)[nH]c1=O,.,85,89,103
CN(C1CCCCC1)S(=O)(=O)N1CCCC(C(=O)N2CCC(C(N)=O)CC2)C1 (stereo not drawn),-25,102,96,103
COc1ccc(C2=NN(C(=O)CCCC(=O)O)C(c3cn(-c4ccccc4)nc3-c3ccccc3)C2)cc1 (stereo not drawn),-18,.,.,103

# Other results.
SMILES,HCMV UL50-53 inh,Sa growth 42C,Sa growth 42C second temp,GIV-Gai inh
CC(=O)Nn1cc(C(=O)O)c2ccccc2c1=O,.,101,95,107
COc1cccc(C2C(C#N)=C(N)Oc3[nH]c(=O)[nH]c(=O)c32)c1 (stereo not drawn),18,77,92,.
N#CC(C#N)C1CCS(=O)(=O)C1 (stereo not drawn),20,105,97,.
Nc1cc(=O)nc2ccccn12,-26,80,85,.
Cc1nn(CCC(=O)NCc2ccc(Cl)cc2)c(=O)c2nn(-c3ccccc3)c(C)c12,.,105,98,97
Cc1ccc(C)c(C(=O)NC2CCCCC2)c1,2,102,99,101
O=C(Cn1cc(S(=O)(=O)N2CCCC2)c(S(=O)(=O)N2CCCC2)c1)Nc1ccccc1,.,93,83,105
CCOc1ccc(-n2nnc(C(=O)NCc3cc(OC)ccc3OC)c2C)cc1,-31,85,79,102
CCOC(=O)C1CCN(C(=O)c2cc3c(=O)oc4ccccc4c3s2)CC1,-22,.,.,101
C=CCn1c(SCc2nc(N)nc(N3CCCCC3)n2)nnc1-c1cccnc1,-22,90,88,.
O=C1NC2(CCCC2)C(=O)N1CN1CCC(Cc2ccccc2)CC1,-32,89,94,.
Cc1ccc(OCC(=O)Nc2ccc(S(=O)(=O)Nc3nc(C)cc(C)n3)cc2)cc1,-10,.,.,103
COC(=O)c1cc2oc3ccccc3c2n1CC(=O)Nc1ccc(Cl)cc1F,8,106,88,101
O=C(Nc1cc(Cl)ccc1Cl)C1(c2cccs2)CCOCC1,.,104,99,101
CC(NC(=O)C1CCN(S(=O)(=O)c2ccccc2)CC1)c1ccccc1 (stereo not drawn),0,114&94,90&97,102&103
COc1cccc(C(=O)OCC(=O)N2CCCc3ccccc32)c1,-12,92,91,.
CNc1ncccc1-c1nc(-c2cccc(C)c2)no1,-18,.,.,99
O=C1NC(=O)C2(CCSc3ccc(F)cc32)N1 (stereo not drawn),-8,98,95,.
CN(C)c1[nH]ncc1-c1ccccc1,-15,.,.,106
COc1ccc(-c2cc(C(F)(F)F)n3nc(C(=O)NCCN4CCOCC4)c(Cl)c3n2)cc1OC,-32,.,.,102
O=C1/C(=C/c2ccc3c(c2)OCO3)CS(=O)(=O)c2ccccc21,-10,75,82,.
CCOc1ccc(-c2noc(C3CCCN(S(=O)(=O)c4ccc(C)cc4)C3)n2)cc1 (stereo not drawn),-22,.,.,99
CCOC(=O)c1c(C)nsc1NC(=O)c1csc(C)c1C,-37,127,95,101
O=C1CCN(c2nc(-c3ccccc3)nc3ccccc23)CC1,-7,93,80,.
O=C(NCc1cccnc1)c1cccn1-c1nnc(N2CCOCC2)s1,-18,.,.,110
Cc1ccc(-c2nc(C)c(CCNS(=O)(=O)c3ccc(F)c(C(F)(F)F)c3)s2)cc1,.,116,82,101
Cc1cc(C)c2c(=O)[nH]n(C(C)C)c2n1,-10&-12,87,87,107
O=S(=O)(c1ccc(Br)cc1)c1nnn2c1nc(NCc1ccc3c(c1)OCO3)c1sccc12,.,120,80,101
C=CCn1c(=N)n(CC(O)c2ccc(C)cc2)c2ccccc21 (stereo not drawn),-19,90,77,96
COc1ccc(CC(=O)NCCc2csc3nc(-c4cccc(F)c4)nn23)cc1OC,-8,.,.,103
CCC(CC)C(=O)N1CCc2cc(OC)c(OC)cc2C1COc1ccc(C(=O)OC)cc1 (stereo not drawn),.,86,73,100
CC1CCCCC1NC(=O)CCS(=O)(=O)c1cccc2nonc12 (stereo not drawn),-64,85,88,98
C1CCN(c2nc3nonc3nc2N2CCCC2)C1,-57,.,.,98
Cc1cccc(-c2ccc(N3CCCC(C(=O)NC4CCCC4)C3)nn2)c1 (stereo not drawn),-49,.,.,99
Cc1csc(-c2cc3ccc(OC/C=C/c4ccccc4)cc3oc2=O)n1,-18,.,.,106
Cc1cccc(OC(C)C(=O)Oc2cccc(-n3cnnn3)c2)c1C (stereo not drawn),-16,.,.,101
CCOc1cc(C(=O)NCc2ccc3c(c2)CCN3C(=O)CC)cc(OCC)c1OCC,-24,116,87,102
Cc1ccc(S(=O)(=O)N2CCN(C(=O)C3CCCN3C(=O)OC(C)(C)C)CC2)c(C)c1 (stereo not drawn),-17,97,96,.
O=C(Cc1ccccc1)Nc1cccc(C(=O)OCC(=O)c2ccc(Cl)cc2)c1,-5,96,126,.

# Six entries already listed, ordered by SMILES length, lowest first:
SMILES,HCMV UL50-53 inh,Sa growth 42C,Sa growth 42C second temp,GIV-Gai inh
C1CCN(c2nc3nonc3nc2N2CCCC2)C1,-57,.,.,98
CC1CCCCC1NC(=O)CCS(=O)(=O)c1cccc2nonc12 (stereo not drawn),-64,85,88,98
Cc1cccc(OC(C)C(=O)Oc2cccc(-n3cnnn3)c2)c1C (stereo not drawn),-16,.,.,101
Cc1cccc(-c2ccc(N3CCCC(C(=O)NC4CCCC4)C3)nn2)c1 (stereo not drawn),-49,.,.,99
CCC(CC)C(=O)N1CCc2cc(OC)c(OC)cc2C1COc1ccc(C(=O)OC)cc1 (stereo not drawn),.,86,73,100
Cc1ccc(S(=O)(=O)N2CCN(C(=O)C3CCCN3C(=O)OC(C)(C)C)CC2)c(C)c1 (stereo not drawn),-17,97,96,.

# Compound activity (PubChem BioAssay)
